Cruzain noTriton: qHTS Assay for Promiscuous and Specific Inhibitors of Cruzain (without detergent) | AID 1476, 2009 | hit rate 2.3% among 200,000 | purified cruzain, Z-FR-AMC fluorescence, no detergent | Cruzipain (Trypanosoma cruzi), P25779 | Potency, µM, for the others: max response, negative = inhibition, most hits filed as inhibitors; active = well fitted curve in the direction sought with a large enough effect; inconclusive = small, poorly fitted or top-dose-only effect, or another doubt; inactive = no such curve, though single readings can be large; an effect the other way counts as inactive or inconclusive;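 also: plate controls were enzyme without inhibitor for no effect and buffer without enzyme for full effect; nearly all actives have a fitted effect of over 40% in size; top concentration of the series not given in the record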
Target sequence (P25779 123-467 limits assumed): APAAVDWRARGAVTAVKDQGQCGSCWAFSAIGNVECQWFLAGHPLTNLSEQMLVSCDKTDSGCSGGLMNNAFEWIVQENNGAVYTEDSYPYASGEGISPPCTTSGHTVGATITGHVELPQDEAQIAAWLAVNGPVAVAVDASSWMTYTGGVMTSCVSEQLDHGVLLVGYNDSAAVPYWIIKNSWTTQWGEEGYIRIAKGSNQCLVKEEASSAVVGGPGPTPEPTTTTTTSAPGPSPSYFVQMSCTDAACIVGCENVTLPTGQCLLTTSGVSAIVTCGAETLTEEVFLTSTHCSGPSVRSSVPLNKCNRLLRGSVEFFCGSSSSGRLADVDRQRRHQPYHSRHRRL
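Detergent-free condition (0.00005% Triton X-100) in acetate buffer pH 5.5 with DTT. 1.5 nM enzyme and compound were pre-mixed 15 min, then 2 uM Z-FR-AMC substrate added; reaction progress from fluorescence change between first and third reads (60 s).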
Cruzain Triton: qHTS Assay for Promiscuous and Specific Inhibitors of Cruzain (with detergent). Cruzipain (Trypanosoma cruzi), P25779. purified cruzain, Z-FR-AMC fluorescence, 0.01% Triton. Potency, µM, without a hit: max response, negative = inhibition, hits mostly inhibitors. hit rate 0.43% among 200,000; active = well fitted curve in the direction sought with a large enough effect; inconclusive = small, poorly fitted or top-dose-only effect, or another doubt; inactive = no such curve, though single readings can be large; an effect the other way counts as inactive or inconclusive;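 also: plate controls were neutral wells for no effect and buffer without enzyme for full effect; nearly all actives have a fitted effect of over 40% in size; top concentration of the series not given in the record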
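Purified cruzain (1.5 nM final) was preincubated with compounds for 15 min at room temperature in 100 mM sodium acetate pH 5.5, 5 mM DTT, 0.01% Triton X-100. Reaction started with 2 uM Z-FR-AMC; AMC fluorescence change over 60 s gave activity.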
SARS PLpro yeast: qHTS of Yeast-based Assay for SARS-CoV PLP | Potency, µM (doses to about 32.9 µM), for the others: top-dose activity, positive = growth rescue | S. cerevisiae expressing SARS-CoV PLpro, growth rescue; control for the full effect not named in the record | AID 485353, 2010 | hit rate 0.19% among 330,000; also: 0% is about no effect; nearly all actives have a fitted effect of over 55% in size; growth read by luminescence after 48 h
MARV entry inh: qHTS for inhibitors of binding or entry into cells for Marburg Virus. Potency, µM (series often up to 37.8 µM), without a hit: top-dose activity change, negative = inhibition, actives largely listed as inhibitors. hit rate 1.8% among 300,000. AID 540276, 2011. Marburg virus pseudotyped entry inhibition, cell reporter; control for the full effect not named in the record; about a third of the inactives were read at about 46 µM; active = well fitted inhibition curve with a large enough effect; inconclusive = small, poorly fitted or top-dose-only effect, or effect the other way; inactive = flat fitted curve, though single readings scatter; tested in HEK293 cells; about a fifth of its hits are not listed in these tables; also: % is scaled to controls: 0 for no effect and ±100 for the full control effect; luciferase read-out
LASV entry inh: qHTS for Inhibitors of binding or entry into cells for Lassa Virus; Lassa virus pseudotype entry inhibition, cell reporter; control for the full effect not named in the record; Potency, µM (series often up to 37.9 µM), for the others: at the highest dose activity change, negative = inhibition, usual class: inhibitors; hit rate 1.2% among 300,000; active means well fitted inhibition curve with a large enough effect; inconclusive means small, poorly fitted or top-dose-only effect, or effect the other way; inactive means flat fitted curve, though single readings scatter; tested in HEK293 cells; also: % is scaled to controls: 0 for no effect and ±100 for the full control effect; nearly all actives have a fitted effect of over 50% in size; luciferase read-out
StopGo reporter: High Throughput Screening for Foot and Mouth Disease Virus Antivirals; human cells with a luciferase reporter of 2A StopGo recoding; control for the full effect not named in the record; Potency, µM (series often up to 57.9 µM), for inactives: at the top dose signal change, negative = less light; hit rate 1.2% among 410,000; active = well fitted falling curve with a large enough effect; inconclusive = small, poorly fitted or top-dose-only effect; inactive = no such curve, though single readings can be large or run the other way; tested in HEK293T cells; also: % is scaled to controls: 0 for no effect and ±100 for the full control effect; nearly all actives have a fitted effect of over 45% in size; luciferase light after 4 h
NS1 function inh: qHTS Assay for Inhibitors of Influenza NS1 Protein Function | S. cerevisiae slowed by influenza A NS1, growth recovery by OD600 | Potency, µM (highest dose often 46.1 µM), inactives show top-dose activity, positive = more growth | hit rate 0.4% among 270,000 | AID 2326, 2010; also: actives are rising curves; nearly all actives have a fitted effect of over 50% in size
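Growth recovery, yeast-based: influenza A NS1 expressed in S. cerevisiae causes slow growth, and suppressors are detected by OD600. The parent strain without NS1 is used as positive control.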
RE007 growth inh: qHTS Assay for Inhibitors of the HIV-1 protein Vpr. AID 651644, 2012. S. pombe RE007 Vpr strain, BacTiter-Glo ATP luminescence, 24 h; control for the full effect not named in the record. Potency, µM (top dose mostly 92.2 µM), inactives show at the highest dose activity change, negative = less growth. hit rate 0.21% among 360,000; active = well fitted falling curve with a large enough effect; inconclusive = small, poorly fitted or top-dose-only effect; inactive = no such curve, though single readings can be large or run the other way;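 also: % is scaled to controls: 0 for no effect and ±100 for the full control effect; nearly all actives have a fitted effect of over 50% in size; the assay follows cell death caused by Vpr and the record does not say whether a fall means rescue or toxicity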
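Fission yeast RE007 carrying one integrated HIV-1 vpr copy, seeded at OD 0.01 in PMG+AL medium with 23 nL pinned compound. Grown 24 h at 30 degrees; viability read by BacTiter-Glo luminescence after 5 min.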
An asterisk follows results filed as active; ? = inconclusive; nt = not tested or not shown; [ ] = remark or other dose. Unless noted, calls follow the shape of the dose curve; as a rule, active means well fitted rising curve with a large enough effect; inconclusive means small, poorly fitted or top-dose-only effect; inactive means no such curve, though single readings can be large or run the other way. Potency is read from the fitted curve at half-maximal effect.

Fields: Cruzain noTriton	Cruzain Triton	SARS PLpro yeast	MARV entry inh	LASV entry inh	StopGo reporter	NS1 function inh	RE007 growth inh
- CC1CCN(CC(=O)NCCc2ccc(F)cc2)CC1
    nt	nt	-1%	1%	12%	0%	0%	-2%
- CCc1ccccc1N(CC(=O)NCc1ccco1)C(=O)CCC(=O)Nc1ccccn1
    nt	nt	2%	-3%[46.1 µM]	-3%[46.1 µM]	10%	-1%	-2%
- Nc1nc(NCC2CCCO2)nc(Nc2ccc(F)cc2)c1[N+](=O)[O-] (stereo not given)
    -13%	-6.2%	1%	2%	-19%	-17%	-15%	-2%
- CCCN1CCN(S(=O)(=O)c2ccc3c(c2)NC(=O)C(C)S3)CC1 (stereo not given)
    nt	nt	0%	nt	nt	-16%	0%	-9%
- O=C(Nc1ccccn1)C1CCN(S(=O)(=O)c2cccc3nonc23)CC1
    1%	4.1%	-4%	?	0%	?	-4%	-7%
- COc1ccc(N2CCN(C(=O)c3ccc4nc(N5CCC(C)CC5)sc4c3)CC2)cc1
    13%	-3.9%	nt	7%[46.1 µM]	?	10%	nt	nt
- CN(c1ccccc1)S(=O)(=O)c1cccc(NC(=O)c2ccc(Cl)c([N+](=O)[O-])c2)c1
    nt	nt	nt	?	?	32µM*	nt	-28%
- COc1cc(/C=C2/SC(=S)N(CC(=O)O)C2=O)ccc1OC(=O)c1ccco1
    nt	nt	1%	1%[46.1 µM]	1%[46.1 µM]	1%	26%	-19%
- Cc1cc(C)nc(NC2=NC3CCCCC3N2)n1 (stereo not given)
    -8%	-12%	1%	-26%	-10%	16%	-7%	-3%
- CS(=O)(=O)c1ccc(C(=O)Nc2ccc(N3CCCCC3)cc2)c(Cl)c1
    nt	nt	1%	?	11%	-6%	nt	6%
- Cc1cc(-c2ccc(NC(=O)[C@@H]3CCCC[C@@H]3C(=O)O)c(C)c2)ccc1NC(=O)[C@@H]1CCCC[C@@H]1C(=O)O
    nt	nt	1%	?	-7%	-22%	4µM*	2%
- CC(OC(=O)c1ccccc1NCc1ccco1)C(=O)Nc1ncc(Cl)cc1Cl (stereo not given)
    -8%	-12%	-4%	?	-5%	0%	-12%	7%
- CCN(C1CCCCC1)S(=O)(=O)c1ccc(OC)c(C)c1
    -13%	-5.2%	-6%	?	-3%	-15%	-8%	-14%
- CN(Cc1ccccc1)S(=O)(=O)c1nnc(NC(=O)c2ccccc2Cl)s1
    7%	-4.9%	nt	nt	4%[46.1 µM]	17%	nt	nt
- Cc1cccc(C)c1OCC(=O)NCc1ccccc1
    nt	nt	-1%	2%[46.1 µM]	-8%[46.1 µM]	9%	-6%	-11%
- CC(C)(C)OC(=O)N1CCC(NC(=O)c2[nH]cnc2C(=O)Nc2ccc(Cl)cc2)CC1
    nt	nt	-1%	-1%	nt	-29%	nt	7%
- O=C1/C(=C/c2cccs2)SC(=S)N1CCC(=O)N1CCCCC1CCO (stereo not given)
    nt	nt	-4%	?	16%[46.1 µM]	0%	-19%	-11%
- Cc1ccc(-n2nnnc2-c2cccc(C)c2)cc1
    nt	nt	-10%	?	-18%	-3%	-2%	-2%
- CC(=O)NC(=O)c1ccc(-c2ccc(Cl)cc2)o1
    -5%	-9.3%	-3%	?	?	19%	-18%	11%
- CC(Sc1nc(-c2ccccc2)cc(C(F)(F)F)n1)C(=O)NCCN1CCOCC1 (stereo not given)
    0%	-1.0%	1%	-1%	-7%	-16%	3%	-18%
- Cc1nc(C)c(CCNS(=O)(=O)c2ccc(F)cc2)s1
    -8%	-7.6%	nt	nt	1%[46.1 µM]	29%	nt	nt
- CCOc1ccc(-c2cc(CCCC(=O)Nc3cccc(OC)c3)no2)cc1
    1%	-6.7%	-8%	?	0.82µM*	?	-4%	-3%
- CC(c1ccccc1)N1C(=O)c2ccc(C(=O)Nc3ccccc3C(=O)O)cc2C1=O (stereo not given)
    nt	nt	-6%	nt	nt	20%	-24%	7%
- C=CCC1(CC=C)CCCN1C(=O)c1cc(COc2ccc(-n3cncn3)cc2)on1
    nt	nt	-6%	?	?	?	-29%	13%
- COc1ccc(CCNC(=O)Cn2c(-c3nonc3N)nc3ccccc32)cc1OC
    14%	0.5%	1%	-28%[46.1 µM]	13%	?	-1%	5%
- c1ccc2nc(NN=C3CCCCC3)ccc2c1
    nt	nt	nt	-24%	?	10%	nt	-12%
- CC(C(=O)O)N(C(=O)c1ccccc1)c1ccc(F)cc1 (stereo not given)
    nt	nt	1%	0%[46.1 µM]	-10%[46.1 µM]	-12%	-1%	0%
- Cc1cccc(N2CCN(C(=O)c3cc4ccccc4oc3=O)CC2)c1C
    0%	-6.2%	-5%	nt	nt	23%	-52%	4%
- COc1ccc2nc(C(F)(F)Cl)c(C#N)c(N)c2c1
    nt	nt	-3%	nt	nt	21%	-10%	2%
- CCCCC1OC2(C)OC(=N)C1(C#N)C(C#N)(C#N)C2c1ccccc1 (stereo not given)
    1%	-6.0%	21%	15%	-1%	?	6%	-4%

2 of these compounds in another layout:
| smiles | Cruzain noTriton | Cruzain Triton | SARS PLpro yeast | MARV entry inh | LASV entry inh | StopGo reporter | NS1 function inh | RE007 growth inh |
| --- | --- | --- | --- | --- | --- | --- | --- | --- |
| CN(Cc1ccccc1)S(=O)(=O)c1nnc(NC(=O)c2ccccc2Cl)s1 | 7% | -4.9% | nt | nt | 4%[46.1 µM] | 17% | nt | nt |
| Cc1cccc(C)c1OCC(=O)NCc1ccccc1 | nt | nt | -1% | 2%[46.1 µM] | -8%[46.1 µM] | 9% | -6% | -11% |

Next part
Fields: Cruzain noTriton	Cruzain Triton	SARS PLpro yeast	MARV entry inh	LASV entry inh	StopGo reporter	NS1 function inh	RE007 growth inh
- Cn1c2ccccc2c2c(C(=O)N3CCN(C(=O)c4ccco4)CC3)cn(C3CCCCC3)c(=O)c21
    7%	-7.2%	-7%	-15%[46.1 µM]	-2%	-18%	15%	8%
- CC(C)(C)C(=O)Nc1ccc(S(=O)(=O)N2CCCC2)cc1
    nt	nt	?	-5%	-7%	4%	3%	3%
- COc1cc(C2=NOC(C(=O)N3CCOCC3)C2)cc(OC)c1OC (stereo not given)
    -1%	-4.5%	-2%	2%	8%	8%	-3%	10%
- NC(=O)c1ccc2nc(NC(=O)c3ccc(N)cc3)sc2c1
    nt	nt	3%	?	?	13%	nt	-3%
- COCCOC(=O)c1c(NC(=O)CNC2CCCc3ccccc32)sc(C(N)=O)c1C (stereo not given)
    nt	nt	0%	3%[46.1 µM]	?	?	3%	2%
- CC(C)(C)c1ccc(C(=O)NC(=S)NNC(=O)COc2ccccc2)cc1
    nt	nt	-4%	nt	nt	4%	-58%	-10%
- O=C(Nc1cccc2ncccc12)c1ccc(-c2ccc(Br)cc2)o1
    -2%	-12%	-6%	?	-1%	?	0%	0%
- COC(=O)Cc1c(C)c2ccc3c(c2oc1=O)CN(Cc1ccc(C)cc1)CO3
    3%	2.6%	nt	-29%[46.1 µM]	-4%[46.1 µM]	-18%	nt	nt
- O=C(c1cccs1)N1CCCC(c2nc3c(nnn3Cc3cccc(Cl)c3)c(=O)[nH]2)C1 (stereo not given)
    nt	nt	1%	8%[46.1 µM]	-6%[46.1 µM]	-1%	2%	9%
- Cc1[nH]n(C(N)=S)c(=O)c1N=Nc1ccc(S(=O)(=O)N2CCCC2)cc1
    -15%	-24%	-2%	18%[46.1 µM]	10%	0%	-16%	0%
- O=C(N/C(=C/c1ccc(Cl)cc1)C(=O)N1CCOCC1)c1ccccc1
    nt	nt	6%	?	17%	15%	1%	-13%
- O=C(CNc1ccccc1)Nc1ccc(F)cc1
    -9%	1.5%	-2%	?	?	78%[activator]	?	-21%
- CN(C)/N=C/c1ccc(/C=N/NC(N)=S)o1
    nt	nt	2%	?	0%[46.1 µM]	33%[activator]	nt	22%
- CCOC(=O)c1sc(NC(=O)C(CC)OC(=O)c2ccco2)nc1C (stereo not given)
    nt	nt	0%	-1%[46.1 µM]	-26%	9%	2%	-7%
- COc1ccccc1C1C(C#N)=C(N)N(N(C)C)C2=C1C(=O)CC(C)(C)C2 (stereo not given)
    nt	nt	1%	-21%[46.1 µM]	?	-11%	2%	6%
- CCOc1ccc(Cn2c(CNS(=O)(=O)c3ccc([N+](=O)[O-])cc3)nc3cccnc32)cc1
    0%	0.0%	nt	nt	-11%[46.1 µM]	30%[activator]	nt	nt
- Cc1coc2c(C)c3oc(=O)c(CCC(=O)NCCc4ccccc4)c(C)c3cc12
    -8%	-1.4%	nt	0%[46.1 µM]	1%[46.1 µM]	0%	nt	nt
- O=C(c1ccccc1F)N(Cc1cccs1)C1CCS(=O)(=O)C1 (stereo not given)
    nt	nt	0%	-12%[46.1 µM]	7%	-4%	12%	6%
- Cc1ccc(N(CC(=O)NC(C)(C)C)C(=O)CNC(=O)c2cccs2)cc1C
    nt	nt	0%	-11%[46.1 µM]	-16%	-13%	4%	-15%
- CCOC(=O)c1cc(C)sc1/N=C/C1C(=O)CC(C)(C)CC1=O
    -6%	-3.7%	4%	?	-1%	-10%	16%	?
- CN1CCc2c(C#N)c(Cl)nc(Cl)c2C1
    11%	-4.7%	5%	nt	nt	-9%	-7%	9%
- Cc1occc1C(=O)NCc1ccccn1
    1%	4.9%	-2%	3%	-5%	17%	8%	-5%
- CN(C(=O)/C=C/c1ccccc1)C1CCS(=O)(=O)C1 (stereo not given)
    12%	-1.1%	-11%	25%	-1%	14%	-10%	9%

Reformatted: results already given
SMILES	Cruzain noTriton	Cruzain Triton	SARS PLpro yeast	MARV entry inh	LASV entry inh	StopGo reporter	NS1 function inh	RE007 growth inh
CN(C)/N=C/c1ccc(/C=N/NC(N)=S)o1	nt	nt	2%	?	0%[46.1 µM]	33%[activator]	nt	22%
CCOC(=O)c1sc(NC(=O)C(CC)OC(=O)c2ccco2)nc1C (stereo not given)	nt	nt	0%	-1%[46.1 µM]	-26%	9%	2%	-7%

Source: PubChem BioAssay
